# NOMO-1 viab = STK33 inhibitor candidate reducing NOMO-1 cell viability; 7.5% of 37,000 active; NOMO-1 AML viability, CellTiter-Glo luminescence, 72 h; inhibition, % (no concentration beside the values);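 active = most replicates above 80%; inconclusive = exactly half above 80%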;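 also: wells of about 30 µL received 25 nL stock; 0% = median of vehicle wells and 100% = reference inhibitor level; the first replicate is given; inactives centre near 10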
# Numbers without * were called inactive; u = inconclusive. Some of the compounds tested; rates above refer to the full screens.
SMILES,NOMO-1 viab
C[C@@H]1CN([C@@H](C)CO)C(=O)c2cccc(NS(=O)(=O)c3cccs3)c2O[C@@H]1CN(C)C(=O)Nc1ccccc1,-7
COc1ccc(OC)c(NC(=O)COc2cc(C)c(Br)c(C)c2)c1,-22
C[C@H](CO)N1C[C@H](C)[C@H](CN(C)Cc2ccc(Oc3ccccc3)cc2)Oc2c(NC(=O)C3CCOCC3)cccc2C1=O,10
COc1ccc(OC)c(S(=O)(=O)N(C)CC(=O)Nc2ccc(F)c(Cl)c2)c1,4
Cc1ccc(S(=O)(=O)Nc2cccc3c2O[C@@H](CN(C)Cc2ccc(C(=O)Nc4ccccc4N)cc2)[C@@H](C)CN([C@@H](C)CO)C3=O)cc1,134*
CCn1c(SCc2nc(-c3cccs3)no2)nnc1-c1cccs1,12
O=C(NCc1ccco1)C1CCCN(S(=O)(=O)c2ccc(F)cc2)C1 (stereo unspecified),1
C[C@H](CO)N1C[C@H](C)[C@H](CN(C)S(=O)(=O)c2ccc(Cl)cc2)Oc2ccc(NS(=O)(=O)c3ccc(F)cc3)cc2CC1=O,-5
Cc1c(-c2ccccc2)oc2c(C(=O)OCCN3CCCCC3)cccc2c1=O,-14
Cc1noc(C)c1NC(=O)N(C)C[C@H]1Oc2ccc(NC(=O)Nc3ccccc3)cc2C(=O)N([C@H](C)CO)C[C@@H]1C,-7
Cc1cccc(C)c1OCC(=O)Nc1ccc(O)cc1C(=O)O,-9
C[C@@H]1CN([C@@H](C)CO)C(=O)c2cc(NC(=O)Cn3cnnn3)ccc2O[C@@H]1CN(C)Cc1ccc(C(=O)Nc2ccccc2N)cc1,19
COc1ccc(OC)c(NC(=O)CNC(=O)c2ccc(OC)c(OC)c2)c1,-1
C[C@H]1CN([C@@H](C)CO)C(=O)c2cc(NC(=O)Nc3cccc4ccccc34)ccc2O[C@@H]1CN(C)C(=O)Nc1cccc2ccccc12,0
CNC[C@@H]1Oc2ccc(NS(=O)(=O)c3ccc(C)cc3)cc2C(=O)N([C@@H](C)CO)C[C@@H]1C,-14
Cc1cccc(NC(=O)CSc2nc3c(cc2C#N)CCCCC3)c1,39
Cc1cc(C(=O)Nc2cccc3c2O[C@@H](CN(C)S(=O)(=O)c2ccccc2)[C@@H](C)CN([C@@H](C)CO)C3=O)n(C)n1,1
CCn1c(SCC(=O)Nc2cccc(SC)c2)nnc1-c1ccccc1Cl,35
CCSc1nnc(-c2ccccc2NC(=O)CC)c(=O)[nH]1,2
COc1ccc(NC(=O)C(=O)NCC(=O)Nc2cccc(C(F)(F)F)c2)cc1,14
COc1ccc(NC(=O)N(C)C[C@@H]2Oc3c(NS(=O)(=O)c4c(C)noc4C)cccc3C(=O)N([C@@H](C)CO)C[C@@H]2C)cc1,22
C[C@@H]1CN([C@H](C)CO)C(=O)c2cc(NC(=O)Cn3cnnn3)ccc2O[C@@H]1CN(C)S(C)(=O)=O,13
COc1ccc(S(=O)(=O)NCc2ccccn2)c(Cl)c1Cl,4
C[C@H]1CN([C@@H](C)CO)C(=O)Cc2cc(NS(=O)(=O)c3ccccc3)ccc2O[C@H]1CN(C)S(C)(=O)=O,23

# An excerpt from above in order of SMILES length, low to high.
SMILES,NOMO-1 viab
CCSc1nnc(-c2ccccc2NC(=O)CC)c(=O)[nH]1,2
COc1ccc(OC)c(NC(=O)CNC(=O)c2ccc(OC)c(OC)c2)c1,-1
COc1ccc(NC(=O)C(=O)NCC(=O)Nc2cccc(C(F)(F)F)c2)cc1,14
C[C@@H]1CN([C@H](C)CO)C(=O)c2cc(NC(=O)Cn3cnnn3)ccc2O[C@@H]1CN(C)S(C)(=O)=O,13
C[C@H]1CN([C@@H](C)CO)C(=O)c2cc(NC(=O)Nc3cccc4ccccc34)ccc2O[C@@H]1CN(C)C(=O)Nc1cccc2ccccc12,0

# Additional records
SMILES,NOMO-1 viab
COC(=O)c1ccccc1NC(=O)CC(O)(C(F)(F)F)C(F)(F)F,26
COc1ccc(S(=O)(=O)Nc2ccc3c(c2)CC(=O)N([C@@H](C)CO)C[C@@H](C)[C@@H](CN(C)Cc2ccc(Cl)c(Cl)c2)O3)cc1,107*
Cc1noc(C)c1NC(=O)Nc1ccc2c(c1)C(=O)N([C@H](C)CO)C[C@H](C)[C@H](CN(C)C)O2,18
C[C@@H]1CN([C@@H](C)CO)C(=O)c2cccc(NC(=O)C3CCOCC3)c2O[C@@H]1CN(C)Cc1ccc(Cl)c(Cl)c1,-10
C[C@H]1CN([C@@H](C)CO)C(=O)c2cccc(NC(=O)c3ccc(-c4nccs4)cc3)c2O[C@H]1CN(C)CC1CC1,-3
COc1ccc(CN(C)C[C@H]2Oc3ccc(NC(=O)C4CC4)cc3C(=O)N([C@@H](C)CO)C[C@H]2C)cc1,-7
O=C(CC1(O)C(=O)Nc2ccccc21)c1ccc(-n2cccc2)cc1 (stereo unspecified),3
CCCN1CC=C2C(C#N)(C#N)C(N)=C(C#N)C(c3ccc(OCC(N)=O)cc3)C2(C)C1 (stereo unspecified),u
Cc1ccc(S(=O)(=O)Nc2ccc3c(c2)CC(=O)N([C@@H](C)CO)C[C@H](C)[C@@H](CN(C)C(=O)Nc2ccccc2)O3)cc1,22
Cc1ccc(NC(=O)CNC(=O)c2ccc([N+](=O)[O-])cc2)cc1,0
C[C@H]1CN([C@@H](C)CO)C(=O)Cc2cc(NC(=O)Nc3ccccc3)ccc2O[C@@H]1CN(C)C(=O)Nc1ccccc1,2
C[C@H](CO)N1C[C@H](C)[C@@H](CN(C)Cc2ccc(C(F)(F)F)cc2)Oc2c(NS(=O)(=O)c3ccc(Cl)cc3)cccc2C1=O,37
C[C@@H]1CN([C@H](C)CO)C(=O)c2cc(N(C)C)ccc2O[C@@H]1CN(C)C,-11
CS(=O)(=O)N(CC(=O)Nc1cccc(Cl)c1Cl)c1ccc(F)c(Cl)c1,8
CNC[C@H]1Oc2c(N)cccc2C(=O)N([C@H](C)CO)C[C@@H]1C,-2
C[C@@H]1CN([C@@H](C)CO)C(=O)c2cc(NC(=O)Nc3ccc(C(F)(F)F)cc3)ccc2O[C@H]1CN(C)C(=O)Nc1ccc(F)cc1,39
C[C@H](CO)N1C[C@H](C)[C@H](CN(C)C(=O)Nc2ccc3c(c2)OCO3)Oc2ccc(NS(C)(=O)=O)cc2CC1=O,10
Cn1c(=O)n(C)c2cc(CNCc3cccnc3)ccc21,18
C[C@H]1CN([C@@H](C)CO)C(=O)c2cc(NS(=O)(=O)c3ccc(Cl)cc3)ccc2O[C@@H]1CN(C)C(=O)Nc1ccc(F)cc1,7
COc1ccc(C)cc1NC(=O)C(C)NS(=O)(=O)c1ccc(C)cc1 (stereo unspecified),0
COc1ccc(C(=O)N(Cc2nc(-c3ccc(C)cc3)no2)C(C)C)cc1,-2
COC(=O)c1ccc(NC(=O)CSc2nnc(-c3cnccn3)n2C)cc1,-25
CC(C)NC(=O)Nc1ccc2c(c1)C(=O)N([C@H](C)CO)C[C@H](C)[C@@H](CN(C)C(=O)C1CCCCC1)OCCCC[C@@H](C)O2,19
Cc1ccc(NC(=O)c2ccc3c(=O)n(Cc4ccco4)c(=S)[nH]c3c2)cc1Cl,121*
C[C@H]1CN([C@@H](C)CO)C(=O)c2cccc(NC(=O)C3CCCCC3)c2O[C@@H]1CN(C)C(=O)Nc1cccc2ccccc12,14
C[C@@H]1CCCCO[C@H](CN(C)Cc2ccccc2)[C@@H](C)CN([C@H](C)CO)C(=O)c2cc(NC(=O)c3ccncc3)ccc2O1,-8
COc1ccc(NC(=O)N(C)C[C@@H]2Oc3c(NC(=O)c4cc(C)nn4C)cccc3C(=O)N([C@H](C)CO)C[C@H]2C)cc1,17
C[C@@H]1CN([C@@H](C)CO)C(=O)Cc2cc(NC(=O)CCN3CCOCC3)ccc2O[C@@H]1CN(C)CC1CC1,30
O=C(COc1ccccc1[N+](=O)[O-])Nc1ccc2nn(-c3ccc(F)cc3)nc2c1,4
CCOc1ccc(-n2cnnn2)cc1S(=O)(=O)NCc1ccccc1,2
Cc1ccc(S(=O)(=O)Nc2ccc3c(c2)C(=O)N([C@H](C)CO)C[C@H](C)[C@H](CN(C)S(=O)(=O)c2cccs2)O3)cc1,22
C[C@@H]1CN([C@@H](C)CO)C(=O)c2cc(NS(C)(=O)=O)ccc2O[C@H]1CN(C)Cc1ccccc1,6
COc1ccc(Cn2c(C)cc(O)cc2=O)cc1OC,30
C[C@@H]1CCCCO[C@@H](CN(C)S(C)(=O)=O)[C@@H](C)CN([C@H](C)CO)C(=O)c2cc(NC(=O)CCC(F)(F)F)ccc2O1,3
N#Cc1ccc(NC(=O)CSc2nnnn2-c2ccccc2)cc1,2
COc1ccc(S(=O)(=O)Nc2ccc3c(c2)CC(=O)N([C@H](C)CO)C[C@@H](C)[C@H](CN(C)Cc2ccc(-c4ccccc4)cc2)O3)cc1,72
COC(=O)c1ccc(Cl)c(NC(=O)CN(c2ccccc2Br)S(C)(=O)=O)c1,95*
c1ccc2c(c1)OCC(c1nnc3sc(-c4ccncc4)nn13)O2 (stereo unspecified),43
O=[N+]([O-])c1ccc(NCCNc2nc3ccccc3nc2N2CCOCC2)cc1,61
CCOc1ccc(NC(=O)CSc2nc(-c3cccs3)cc(C(F)(F)F)c2C#N)cc1,12
Cc1noc(C)c1NC(=O)N(C)C[C@H]1Oc2ccc(NS(=O)(=O)c3cn(C)cn3)cc2C(=O)N([C@@H](C)CO)C[C@@H]1C,6
CC(=O)O[C@H]1C[C@@]2(C)[C@@H](CC[C@H]3[C@@]4(C)C=CC(=O)[C@@H](C)[C@@H]4[C@H](OC(C)=O)C(=O)[C@@]32C)/C1=C(\CCC=C(C)C)C(=O)O,u
C[C@@H]1CN([C@@H](C)CO)C(=O)c2cccc(NS(=O)(=O)c3ccc(Cl)cc3)c2O[C@@H]1CN(C)S(C)(=O)=O,1
Cc1ccc(N=C2SC3(CC3)C(=O)N2c2ccc(C)cc2)cc1,30
COc1ccc(S(=O)(=O)N(C)C[C@@H]2Oc3ccc(NC(=O)C4CCCCC4)cc3CC(=O)N([C@H](C)CO)C[C@@H]2C)cc1,-5
c1coc(-c2nnc(C3CCCCC3)o2)c1,-18
COc1ccc(S(=O)(=O)N(C)C[C@@H]2Oc3c(NC(=O)C4CCCCC4)cccc3C(=O)N([C@H](C)CO)C[C@@H]2C)cc1,24
COc1ccc([N+](=O)[O-])cc1NC(=O)CCN1CCOCC1,11
CCN(CC(=O)Nc1ccc(C)c(Cl)c1)S(=O)(=O)c1ccc(Cl)cc1,18
C[C@@H]1CN([C@@H](C)CO)C(=O)c2cc(NC(=O)Nc3ccc4c(c3)OCO4)ccc2O[C@H]1CN(C)S(=O)(=O)c1cn(C)cn1,20
COc1ccc(OC)c(C2C(C(=O)Nc3ccccc3OC)=C(C)Nc3ncnn32)c1 (stereo unspecified),-16
CC(C)NC(=O)N(C)C[C@@H]1Oc2ccc(NS(=O)(=O)c3cccs3)cc2CC(=O)N([C@H](C)CO)C[C@H]1C,8
CCc1ccc(OCC(=O)Nc2ccc3oc(-c4ccc(OC)cc4)nc3c2)cc1,10
COc1ccc(OCCC(=O)NN)cc1,3
COc1ccc(NC(=O)NCc2cccnc2)cc1OC,-7
O=C(CSc1nnnn1-c1cccc2ccccc12)c1ccc(O)c(O)c1,12
Cc1ccc(S(=O)(=O)CC(CN2CCOCC2)N2CCOCC2)cc1 (stereo unspecified),27
CCOC(=O)c1c(NC(=O)C(C)Oc2ccccc2)sc(C)c1C (stereo unspecified),-2
Cn1c(=O)c2ccccc2n(CC(=O)Nc2ccccc2[N+](=O)[O-])c1=O,-5
Cc1ccc(-c2nc(S(=O)(=O)c3ccc(Br)cc3)c(SCC(N)=O)o2)cc1,11

# The final 4 entries of the part before are carried over, then new ones follow.
SMILES,NOMO-1 viab
Cc1ccc(S(=O)(=O)CC(CN2CCOCC2)N2CCOCC2)cc1 (stereo unspecified),27
CCOC(=O)c1c(NC(=O)C(C)Oc2ccccc2)sc(C)c1C (stereo unspecified),-2
Cn1c(=O)c2ccccc2n(CC(=O)Nc2ccccc2[N+](=O)[O-])c1=O,-5
Cc1ccc(-c2nc(S(=O)(=O)c3ccc(Br)cc3)c(SCC(N)=O)o2)cc1,11
COc1ccc(S(=O)(=O)N(C)C[C@@H]2Oc3c(NS(=O)(=O)c4cccs4)cccc3C(=O)N([C@@H](C)CO)C[C@@H]2C)cc1,14
Cc1cc(C)n(C(=O)c2ccc(COc3c(F)c(F)cc(F)c3F)o2)n1,36
COc1ccc(NC(=O)COc2ccc(Br)cc2C)c([N+](=O)[O-])c1,33
Cc1c(Cl)cccc1NC(=O)CC1NCCNC1=O (stereo unspecified),-6
CC(C)(C)c1ccc(-c2n[nH]c(S(C)(=O)=O)c2C#N)cc1,18
Cc1cc(C)cc(NC(=O)CN2CCC(C(N)=O)(N3CCCCC3)CC2)c1,1
Cc1ccc(S(=O)(=O)N(C)C[C@H]2OCCCC[C@@H](C)Oc3ccc(NC(=O)Nc4ccc(C(F)(F)F)cc4)cc3C(=O)N([C@H](C)CO)C[C@@H]2C)cc1,68
Cc1ccc(S(=O)(=O)N(C)C[C@@H]2Oc3c(NS(=O)(=O)c4ccc(F)cc4)cccc3C(=O)N([C@H](C)CO)C[C@@H]2C)cc1,34
CCOC(=O)c1c(NC(=O)CSc2nnc(C)s2)sc2c1CCN(C)C2,16
Cc1noc(C)c1NC(=O)N(C)C[C@H]1Oc2ccc(NS(=O)(=O)c3cn(C)cn3)cc2C(=O)N([C@@H](C)CO)C[C@H]1C,18
C[C@H](CO)N1C[C@H](C)[C@@H](CN(C)Cc2ccccc2)Oc2ccc(NS(=O)(=O)c3cn(C)cn3)cc2C1=O,-9
COc1ccc(NC(=O)CSc2ncnc3sc4c(c23)CCC(C)C4)c([N+](=O)[O-])c1 (stereo unspecified),5

# Source: PubChem BioAssay (Broad Institute)
